VACV Venus inh – inhibitors of vaccinia virus (Venus reporter) | Vaccinia virus Venus reporter expression, fluorescence | 330,000 compounds, 0.46% hits | Potency, µM (highest dose often 36.5 µM), without a hit: at the highest dose activity change, negative = inhibition, actives largely listed as inhibitors | AID 720580; active means well fitted inhibition curve with a large enough effect; inconclusive means small, poorly fitted or top-dose-only effect; inactive means no such curve, though single readings can be large or run the other way; tested in A549 cells; also: nearly all actives have a fitted effect of over 30% in size; inactives centre near -10
VACV mCherry inh – inhibitors of vaccinia virus infection (mCherry reporter signal). AID 720579. Vaccinia virus mCherry reporter infection, fluorescence; about a quarter of the inactives have no number. 310,000 compounds, 0.63% hits. Potency, µM (doses to about 36.5 µM), for the others: top-dose activity change, negative = inhibition, most hits filed as inhibitors; active = well fitted inhibition curve with a large enough effect; inconclusive = small, poorly fitted or top-dose-only effect; inactive = no such curve, though single readings can be large or run the other way; tested in A549 cells; also: nearly all actives have a fitted effect of over 35% in size; inactives centre near -10
* marks the source's active call; other numbers are inactive results; i = inactive; ? = inconclusive; / = not tested or not shown; & = joins results of further samples; [ ] = remark or other dose. % is scaled to controls: 0 for no effect and ±100 for the full control effect; potency is read from the fitted curve at half-maximal effect.

Sequence of screens: VACV mCherry inh	VACV Venus inh
CCOc1cccc(NC(=O)C2CCCN(S(=O)(=O)c3ccc(-n4cnnn4)cc3)C2)c1 (stereo not drawn)
 : -17%	-18%
OC1(CN2CCOCC2)C2CN3CCN(C2)CC1(c1ccccc1)C3 (stereo not drawn)
 : -9%	-22%
O=C(Oc1ccc2c(c1)OCC2=O)c1ccccc1
 : -15%	-15%
CCOc1ccccc1/C=C/c1onc(C)c1S(=O)(=O)N1CCC(C(=O)NC)CC1
 : -9%	-6%
O=[N+]([O-])c1cc(Cl)ccc1Sc1ccccn1
 : -17%	-15%
CCOc1ccc(Br)cc1S(=O)(=O)Nc1ccc(C(=O)Nc2ccc(C)cc2)cc1
 : -13%	-22%
O=C(CSc1nc2ccccc2[nH]1)NCc1ccc2c(c1)OCO2
 : -13%	-14%
COc1ccc(S(=O)(=O)N(C)c2ccc(OC(=O)C(C)Oc3ccc(F)cc3)cc2)cc1 (stereo not drawn)
 : -15%	-8%
O=C(CSc1nnc(-c2ccncc2)n1Cc1ccco1)Nc1ccccc1F
 : -1%	-7%
CCc1nnc(NC(=O)Cc2cccs2)s1
 : 5%	7%
Cc1occc1-c1nnc(SCC(=O)NCc2cccs2)n1CC1CCCO1 (stereo not drawn)
 : -9%	-1%
Cc1ccc(OC2CCN(C(=O)[C@H]3O[C@@H](n4ccc(N)nc4=O)[C@H](O)[C@@H]3O)CC2)cc1
 : i	1%
CCCC(=O)OCc1cnc(C)c2oc(=O)c(C(=O)Nc3ccc(F)cc3C)cc12
 : 2%	-12%
CCc1ccc(NC(=O)C/C(C)=N/NC(=O)COc2ccc(C)cc2Br)cc1
 : -12%	-11%
COc1cc(/C=N/NC(=O)c2cccc(S(=O)(=O)N3CCCCC3)c2)cc(Br)c1O
 : -17%	-11%
CC(C)CN(C(=O)COC(=O)C12CC3CC(CC(O)(C3)C1)C2)c1c(N)n(Cc2ccccc2)c(=O)[nH]c1=O
 : -11%	-15%
Cc1ccc(S(=O)(=O)NCC2CCC(C(=O)NCc3ccco3)CC2)cc1 (stereo not drawn)
 : i	0%
CCN(C(=O)Cn1cc(S(=O)(=O)N2CCN(c3ccccc3F)CC2)c2ccccc2c1=O)c1ccc(C)c(C)c1
 : -18%	-11%
Cc1ccc(Cc2c(-c3ccccc3)nc3cc(C)c(Br)c(C)n23)cc1
 : 14%	15%
CCN(CC)c1ccc(C(=O)c2cnc(/N=C/N(C)C)s2)cc1
 : -29%	-19%
Cc1ccc(C(C)C)c(OCC(=O)Nc2ccc3c(c2)nc(CCNC(=O)c2ccco2)n3C)c1
 : -2%	-10%
O=C(c1cnn2c(C(F)F)cc(-c3ccccc3)nc12)N1CCc2ccccc2C1
 : i	-16%
CC(=O)N1Cc2cc(C(=O)NCC(F)(F)F)nc(-c3cccc(-c4cc5ccccc5o4)c3)c2[C@H]1CCO
 : ?	-25%
CCOC1=C2[C@@H](CN(S(=O)(=O)c3ccc(C)cc3)[C@H]2c2ccc(CC)cc2)[C@H]2C(=O)N(c3ccccc3)C(=O)[C@H]2C1
 : -1%	-1%
COc1ccc(CN(C)C(=O)c2ccc(COc3ccccc3)cc2)c(OC)c1
 : -13%	-5%
OC(c1ccc(F)c(F)c1)c1ncc(-c2ccc(Cl)cc2)[nH]1 (stereo not drawn)
 : ?	?
COc1ccc(C(=O)NCc2nnc(SCC(=O)NC3CCCCC3)o2)cc1
 : i	-5%
CC(C)(C)c1ccc(OCCC(=O)OCC(=O)NCc2ccccc2)cc1
 : -17%	-12%
CCOC(=O)c1cc(C#N)c(SCC(=O)Nc2ccc(C(C)=O)cc2)[nH]c1=O
 : ?	-2%
Cc1n[nH]c(C)c1CN(C)C(=O)C1CCC(=O)N(CC2CCCCC2)C1 (stereo not drawn)
 : -2%	-14%
CC12CC[C@H]3[C@@H](CCC4(O)C[C@H](O)CCC34/C=N/NC(=O)c3ccccc3O)C1(O)CCC2C1=CC(=O)OC1 (stereo partly drawn)
 : ?	?
Cc1cccc(C)c1NC(=O)CNC(=O)c1cncc(Br)c1
 : -1%	2%
CC(=O)C1=CCC(c2ccccc2Cl)N(S(=O)(=O)c2ccc(C)cc2)C1 (stereo not drawn)
 : i	-9%
COc1cccc(-c2cnc3c(NC(C)=O)cc(-c4cccc(NS(C)(=O)=O)c4)cn23)c1
 : 25%	-5%
C[C@@H]1CN([C@@H](C)CO)C(=O)c2cc(NC(=O)c3ccccc3)ccc2O[C@@H](C)CCCCO[C@@H]1CN(C)Cc1ccc(C(F)(F)F)cc1
 : ?	?
Cc1nn(C)c(C)c1S(=O)(=O)N1CCC(C(=O)NC(C)c2ccccc2)CC1 (stereo not drawn)
 : 49%[activator]	-14%
COc1ccc(-c2csc(NC(=O)CN3C(=O)NC4(CCCC4)C3=O)n2)cc1OC
 : -4%	-15%
N/C(=N\NS(=O)(=O)c1ccc(Cl)cc1)c1ccccn1
 : -18%	7%
Cc1cccc(C)c1NC(=O)C(NS(=O)(=O)c1cccs1)c1ccccc1 (stereo not drawn)
 : 2%&-7%	9%&-3%
O=C1COc2ccc(C(=O)COC(=O)c3ccc4ccccc4n3)cc2N1
 : /	10%
CC(OC(=O)CNC(=O)c1cccc(F)c1)C(=O)NC1CCCCC1C (stereo not drawn)
 : i	-8%
Cc1ccc(C2=NN(C(=O)CCC(=O)O)C(c3cccc([N+](=O)[O-])c3)C2)cc1 (stereo not drawn)
 : i	-8%
O=C(CCc1nnc(Cc2ccc(-c3ccccc3)cc2)o1)N1CCCC1
 : -9%	-9%
CN1OC(c2ccccc2)=C(CO)C1c1ccccc1 (stereo not drawn)
 : i	-9%
COc1ccc(NC(=O)C2C3CCC4C(CCC32)C4(Cl)Cl)cc1 (stereo not drawn)
 : -14%	-5%
O=c1c(/C=N\NS(=O)(=O)c2ccccc2)coc2ccc(Cl)cc12
 : -21%	-14%
CCCCn1c2nc3ccccc3nc2c2c(=O)n(-c3ccccc3)cnc21
 : i	-15%
COc1ccc(-c2cn3cccnc3n2)cc1NS(=O)(=O)c1ccccc1
 : -14%	-10%
CCOC(=O)C1C(=O)C(C(C)=O)C(=O)CC1CC(C)SCC (stereo not drawn)
 : -1%	-18%
COC(=O)C1=C(C)NC=C([N+](=O)[O-])C1c1ccc(OC)cc1 (stereo not drawn)
 : i	-17%
COc1ccc(NC(=O)NN(C(=O)c2ccccc2)C(C)(C)C)cc1
 : -6%	-5%
CCOC(=O)c1cnc(SCC(=O)N2CCC(C(N)=O)CC2)nc1N
 : -10%	-4%
COc1ccc(Cc2nnc(NC(=O)CS(=O)(=O)c3ccccc3)s2)cc1OC
 : -9%	-18%
COc1ccccc1C(=O)COC(=O)c1cnc(C)cn1
 : -11%	-10%
COc1nc(OC)nc(Oc2ccc([N+](=O)[O-])cc2Cl)n1
 : -5%	-10%
COc1ccccc1NS(=O)(=O)c1ccc(NC(=O)CCNC(=O)c2ccco2)cc1
 : -5%	-9%
Cc1onc(-c2c(Cl)cccc2Cl)c1/C(N)=N/OC(=O)C(C)(C)C
 : -13%	-3%
O=C(c1cccc(C(F)(F)F)c1)N(c1ccccn1)C1CCCCC1
 : -11%	-2%
CC(=O)Nc1ccc(S(=O)(=O)NCC(=O)OCC(=O)N2CCCc3ccccc32)cc1
 : -12%	-7%
CC(=O)Nc1ccc(C2=NN(Cc3nnc(-c4ccccc4)o3)C(=O)SC2)cc1
 : -8%	-11%

Complete entries as entered above. Order of screens: VACV mCherry inh	VACV Venus inh
Cc1ccc(C2=NN(C(=O)CCC(=O)O)C(c3cccc([N+](=O)[O-])c3)C2)cc1 (stereo not drawn) is entered as i	-8%
CCc1ccc(NC(=O)C/C(C)=N/NC(=O)COc2ccc(C)cc2Br)cc1 is entered as -12%	-11%

Next part
Sequence of screens: VACV mCherry inh	VACV Venus inh
COc1cc(C(=O)c2cc3c(cc2C)OCO3)cc(OC)c1OC
 : -1%	?
CCN1CCN(C(=O)C2CCN(c3nnc(-n4c(C)ccc4C)s3)CC2)CC1
 : -5%	-7%
CC1CC(=O)Nc2ccccc2N1C(=O)Nc1ccccc1 (stereo not drawn)
 : i	0%
COc1cc(OC)cc(-c2nc3nc(C)c(CCC(=O)Nc4ccc(C)c(C)c4)c(C)n3n2)c1
 : -10%	3%
COC(=O)c1ccc2c(=O)n(Cc3ccc4c(c3)OCO4)c(SCC(=O)N3CCCC3)nc2c1
 : -1%[7.34 µM]	12%[7.34 µM]
CSc1c(CC(=O)NCCO)n(C)c2ccccc12
 : i	0%
CCCCCCC1CC(CCC(=O)Nc2ccc([N+](=O)[O-])cc2)C(=O)O1 (stereo not drawn)
 : /	2%
CCCCOP(=O)(c1ccc(N(C)C)cc1)C(Nc1ccccc1)c1ccccc1 (stereo not drawn)
 : ?	?
Cc1cccc(C)c1NC(=O)CCCN1CC(C)OC(C)C1 (stereo not drawn)
 : -20%	-5%
Nc1ncc(-c2ccccc2)c(-c2ccc(OCc3ccccc3)cc2O)n1
 : ?	-24%
COCC(=O)N1CCC(Oc2ccc(C(=O)NC(C)c3nc(C)sc3C)cc2)CC1 (stereo not drawn)
 : -26%	-11%
Cc1n[nH]c(C)c1S(=O)(=O)N1CCCC(C(=O)N2CCN(c3ccc(Cl)cc3)CC2)C1 (stereo not drawn)
 : ?	?
O=C(O)[C@H](O)[C@@H](O)C(=O)O
 : -2%	-4%
CC(=O)Nc1ccc(/C(C)=N/Nc2nc(Nc3ccccc3)nc(N3CCOCC3)n2)cc1
 : -10%	-2%
CCS(=O)(=O)N1CCN(c2ccc([N+](=O)[O-])c(NCC3CCCO3)c2)CC1 (stereo not drawn)
 : -21%	-8%
COc1ccc(/C=N/Nc2cn[nH]c(=O)c2Cl)cc1
 : -28%	-20%
COc1ccc(CCNc2nc3ccccc3c3nc(-c4cccc(C)c4)nn23)cc1OC
 : -11%	-12%
CCOC(=O)c1cnc(-n2nc(C)cc2C)nc1NNc1nc(-c2ccccc2)cc(-c2ccccc2)n1
 : -13%	-3%
Cc1ccc(NC(=O)CCC(=O)NNC(=O)COc2ccc([N+](=O)[O-])cc2)cc1C
 : -2%	-12%
CCOc1cc(C)c(Cl)cc1S(=O)(=O)N1CCCC1
 : /	-9%
CC1CCCCC1NC(=O)CN1CCC(O)(c2ccc(F)cc2)CC1 (stereo not drawn)
 : i	-11%
CCCc1cc(C(=O)N2CCC(N3CCC(C(=O)NC(C)C)CC3)CC2)n(C)n1
 : 0%	-12%
CCOc1[nH]c(/N=C/c2ccc(OC)cc2)c(C#N)c1C#N
 : -12%	102%[activator]
O=C(Nc1nc2cc3c(cc2s1)OCCO3)c1ccco1
 : ?	?
Cc1cc(NCc2ccccn2)n2nc(C)c(-c3ccccc3)c2n1
 : 5.6µM*	?
COc1ccc(Cc2nc3ccc(C(=O)NC4CCOC4)cc3o2)cc1OC (stereo not drawn)
 : -4%	-13%
CCOc1ccccc1C1SCC(=O)Nc2c1c(=O)[nH]n2C(CC)CC (stereo not drawn)
 : /	-11%
CCOc1ccccc1CN1CCNC(=O)C1CC(=O)NCc1cc(C)n(C)n1 (stereo not drawn)
 : -11%	-11%
CCN(CCO)Cc1csc2ccc(Cl)cc12
 : -7%	-5%
CC(C)C[C@@H]1COc2cc(N3CCC[C@H]3CO)ccc2S(=O)(=O)N1
 : 5%	6%
CN(Cc1ccccc1)C(=O)[C@@H]1CCCN1C(=O)[C@@H]1CCCN1C(=O)c1c(F)cccc1F
 : 8%	3%
Cn1c2ccccc2c(=O)c2cc(C#CC3(O)CCCCC3)ccc21
 : -5%	-22%
CCn1c(-c2c(Cl)c(C)nn2C)n[nH]c1=S
 : -10%	-8%
N#Cc1ccc(C(=O)Nc2ccc3ccccc3c2)cc1
 : ?	2%
CC(C)(C)c1ccc(-c2nnc(-c3ccccc3NC(=O)c3cccc(C(F)(F)F)c3)o2)cc1
 : -6%	-3%
O=C(Nc1ccccc1Cl)N1CCSc2ccccc21
 : 19%&-12%	1%&-2%
Cc1ccccc1Cn1c(=O)n(CCCCCC(=O)NCc2ccc3c(c2)OCO3)c(=O)c2sccc21
 : -21%	-20%
Clc1ccc(/C=N/NC(=Nc2ccccc2)c2ccccn2)c(Cl)c1
 : -12%	-18%
O=C(CN1CCOc2ccccc21)NCc1ccc(F)cc1
 : -11%	-7%
CCCC(CCC)C(=O)Oc1cc(C)[nH]c(=O)c1[N+](=O)[O-]
 : i	-6%
Cc1ccc(C)c(NC(=O)CCCn2c(C)c3cnn(-c4ccccc4)c(=O)c3c2C)c1
 : -1%	-14%
CN(C)c1ncnc2c1ccn2C1OC(CO)C(O)C1O (stereo not drawn)
 : ?	?
COCCCNC(=O)CC1C[C@H](C(=O)N2CCCCC2)[C@@]2(CCc3ccccc3)c3[nH]c4ccccc4c3CCN2C1=O (stereo partly drawn)
 : ?	?
C=CCC(C(=O)c1ccccc1)[N+](C)(C)CC=C (stereo not drawn)
 : i	7%
O=C(CN1C(=O)CC(c2ccco2)Sc2ccccc21)Nc1ccc(OC(F)(F)F)cc1 (stereo not drawn)
 : 6%	8%
Cc1ccc(CNC(=O)COC(=O)c2ccc(Br)cc2)cc1
 : -13%	-8%
CCCCNC(=O)C1(C)CCC(=O)N1c1cc(C(C)(C)C)nn1C (stereo not drawn)
 : i	-14%
COC(=O)Cc1nc2c(N)nc(N)nc2[nH]c1=O
 : -1%	-1%
CCN(C(=O)COC(=O)c1c(NC(C)=O)sc(C)c1C)C1CCS(=O)(=O)C1 (stereo not drawn)
 : 50%[activator]	-9%
